# Bioassay records deposited in PubChem BioAssay by National Center for Advancing Translational Sciences (NCATS).
# VACV mCherry inh: inhibitors of vaccinia virus infection (mCherry reporter signal); 310,000 compounds, 0.63% hits; Vaccinia virus mCherry reporter infection, fluorescence; about a quarter of the inactives have no number; AID 720579; Potency, µM (series often up to 36.5 µM), inactives show at the highest dose activity change, negative = inhibition, hits mostly inhibitors; active = well fitted inhibition curve with a large enough effect; inconclusive = small, poorly fitted or top-dose-only effect; inactive = no such curve, though single readings can be large or run the other way; tested in A549 cells; also: nearly all actives have a fitted effect of over 35% in size; inactives centre near -10
# VACV Venus inh: inhibitors of vaccinia virus (Venus reporter); Vaccinia virus Venus reporter expression, fluorescence; Potency, µM (doses to about 36.5 µM), without a hit: at the highest dose activity change, negative = inhibition, hits mostly inhibitors; 330,000 compounds, 0.46% hits; AID 720580; active means well fitted inhibition curve with a large enough effect; inconclusive means small, poorly fitted or top-dose-only effect; inactive means no such curve, though single readings can be large or run the other way; tested in A549 cells; also: nearly all actives have a fitted effect of over 30% in size; inactives centre near -10
# Starred values were filed as active, the others as inactive; i = inactive; ? = inconclusive; / = no result given; & = joins results of further samples; [ ] = remark or other dose. % is scaled to controls: 0 for no effect and ±100 for the full control effect; potency is read from the fitted curve at half-maximal effect.
Structure,VACV Venus inh,VACV mCherry inh
O=C(CN1CCC(n2nnc3cc(F)ccc32)CC1)Nc1ccc2c(c1)CCC2,-20%,-25%
N#Cc1ccc(NC(=O)COC(=O)C2Cc3ccccc3CN2C(=O)c2ccccc2)cc1 (centres undefined),-3%,-5%
CCOC(=O)c1[nH]nc2c1C(=O)N(CC)C2=O,-11%,/
O=C(NCCCN1CCOCC1)c1sc2cc(Cl)ccc2c1Cl,2%,-1%
Cc1cccn2cc(-c3cccc(NC(=O)C(C)C)c3)nc12,-3%,-17%
CCOC(=O)c1[nH]c(C)c(C(=O)OCc2ccccc2F)c1C,?,?
Cc1ccc(N2NC(=O)/C(=C/c3ccc(-c4ccc(Cl)c(C(=O)O)c4)o3)C2=O)cc1C,-2%,-10%
CC(C)NC(=O)c1cnc2sc(N3CCCCCC3)nn2c1=O,-7%,-9%
Cc1ccccc1NCC(=O)N/N=C/c1ccc([N+](=O)[O-])cc1,-16%,-16%
C/C=C(/C)C(=O)OC1CC(C)(C)C[C@H]2C3=CC[C@@H]4[C@@]5(C)CCC(O[C@@H]6O[C@@H](C(=O)O)[C@@H](O)C(O[C@@H]7OC[C@H](O)[C@@H](O)[C@@H]7O[C@@H]7OC(CO)C(O)[C@@H](O)[C@@H]7O)C6O[C@@H]6OC(CO)C(O)C(O)C6O)[C@@](C)(CO)[C@@H]5CC[C@]4(C)[C@]3(C)CC(O)[C@@]12CO (some centres undefined),13µM*,?
Cc1noc(-c2ccc(N3CCCCC3C)c([N+](=O)[O-])c2)n1 (centres undefined),-8%,-10%
O=C(CSc1nnc(COc2ccccc2)o1)NCCc1ccccc1,-18%,-16%
O=C(CSc1nc(=O)n2ccccc2n1)NCc1ccc(F)cc1,-3%,-8%
CCCCN(C)CCCNC(=O)CN1C(=O)COc2ccc(S(=O)(=O)N3CCOCC3)cc21,2%,3%
CCOC(=O)CSc1nc(C)cc2c1C(=O)OC2,-11%,i
CCCc1cc(C(=O)Nc2ccc(C(=O)OC)cc2)cs1,-2%,-12%
COc1ccc(-n2c(Cc3ccccc3)nnc2SCc2nc(-c3ccccc3C)no2)cc1,-10%,-4%
Cc1cc(C)n2nc(Nc3ccccc3)cc2n1,5%,i
N#Cc1c(NC(=O)CSCC(=O)O)sc2c1CCCC2,2%,-11%
CCC1(c2ccccc2)NC(=O)N(CC(=O)Nc2ccc(S(=O)(=O)N3CC(C)CC(C)C3)cc2)C1=O (centres undefined),?,?
CC(=O)N1c2ccccc2CC1C(=O)N1CCN(c2cc(Cl)ccc2C)CC1 (centres undefined),7%,-3%
O=C(O)COc1ccc2c3c(c(=O)oc2c1)CCCC3,0%,i
C[C@H]1CCCC=CC2C[C@H](O)C[C@@H]2[C@H](O)C=CC(=O)O1 (some centres undefined),?,?
CC1Cc2cc(S(=O)(=O)CCC(=O)Nc3ccc(F)c(Cl)c3)ccc2N1C(=O)C1CC1 (centres undefined),-18%,-19%
Cn1c(N)c(C(=O)COC(=O)/C=C/c2ccc(S(=O)(=O)N3CCOCC3)cc2)c(=O)n(C)c1=O,-6%,-9%
Oc1ccc(-c2cn3ccccc3n2)cc1O,-4%,-11%
O=C1CC(NCCc2ccccc2)C(=O)N1CCc1ccccc1 (centres undefined),-1%,-21%
COc1ccc(C(=O)COc2ccc(F)cc2)c(O)c1,1%,6%
CSc1cccc(NC(=O)C2CCCN(S(=O)(=O)c3ccc(F)cc3)C2)c1 (centres undefined),?,/
COC(=O)CSc1[nH]c2cc(C)ccc2c1[N+](=O)[O-],-3%,-14%
Cc1ccccc1-n1c(SCC(=O)N/N=C/c2ccccc2OCC(=O)O)nc2ccccc2c1=O,-7%,-14%
Oc1c(Br)cc(Br)c2cccnc12,-5%&-15%,-19%&-15%
COc1cc(C2NC(=O)NC3=C2C(=O)OC3)cc(OC)c1OC (centres undefined),12%,2%
CN(C)/C=C1\C(=O)N(C)N=C1C(F)(F)F,-7%,i
Cc1ccc2nc(-c3ccc(NC(=O)CN4CCN(c5ccccn5)CC4)cc3)sc2c1,-6%,?
Cc1nn(-c2ccccc2)c(N2CCCC2)c1/C=C1\N=C(c2ccccc2)OC1=O,-14%,i
O=C(CCCC(=O)OCC(Cl)=C(Cl)Cl)Nc1cccc2ccccc12,-16%,-6%
COc1ccc(CCC(=O)Nc2cccc(S(=O)(=O)N(C)C)c2)cc1OC,-1%,-16%
CC(=O)NCC(=O)OCC(=O)c1ccc(Cl)cc1,-2%,i
CN(C)/C=N/c1nc2ncc(-c3ccc(Cl)cc3)c(/N=C/N(C)C)n2n1,-10%,-3%
Cc1nn(Cc2ccccc2)c(Cl)c1C(=O)NC(C)(C)C,-10%,-12%
O=C(NCCN=C1NS(=O)(=O)c2ccccc21)c1ccc(S(=O)(=O)N2CCOCC2)cc1,16%,/
Cn1cccc1C(=O)OCC(=O)c1c[nH]c2ccccc12,-8%,-18%
CCOC(=O)c1c(C)oc2ncnc(N3CCN(c4cccc(Cl)c4)CC3)c12,-14%,-24%
CCCCCCCCC(c1nc2cc(C)c(C)cc2[nH]1)n1c(=O)c(-c2ccccc2Br)nc2ccccc21 (centres undefined),-7%,4%
CCOC(=O)/C=c1\s/c(=C\c2ccccc2OC)c(=O)n1CC(=O)N1CCOCC1,-5%,/
COc1cccc2c1OCC(CN1CCN(C3CCCCC3)C(CCO)C1)=C2 (centres undefined),-13%,-17%
CN1CCCc2cc(C=O)ccc21,0%,-4%
Cc1ccc(C(=O)NCCN(C)C)cc1C,-15%,-16%
COc1cccc(C(NC(C)=O)c2nc(-c3cccc(C(C)C)c3)cs2)c1 (centres undefined),-9%,43%[activator]

# (further entries)
Structure,VACV Venus inh,VACV mCherry inh
CCn1nc(C(=O)NNS(=O)(=O)c2cc(/C=C/C(=O)O)cc(OC)c2OC)c2ccccc2c1=O,-7%,-12%
CCN1CCN(C(=O)CN(C)S(=O)(=O)c2ccc(OC)cc2)CC1,-25%,-31%
Cc1ccccc1-n1nnnc1SCC(=O)c1c(N)n(C2CC2)c(=O)[nH]c1=O,-22%,i
COc1cccc(C(=O)NCc2nc(-c3cccc(NC(=O)c4ccoc4C)c3)oc2C)c1OC,?,?
Cc1cccc(C)c1NC(=O)c1ccc2c(c1)nnn2C1CCCC1,-13%,-21%
COc1ccc(CNC(=O)CSc2nc3ccc(C)cc3[nH]2)cc1,-8%,7%
Cc1cccc(-n2c(CCN3C(=O)c4ccccc4C3=O)nc3ccccc3c2=O)n1,-2%,-3%
COc1cc(NC(=O)C2CCN(S(=O)(=O)c3c(C)noc3/C=C/c3c(C)cc(C)cc3C)CC2)cc(OC)c1,-7%[7.34 µM],-12%[7.34 µM]
O=C(COc1ccccc1Cl)N(Cc1cccc(F)c1)C1CCS(=O)(=O)C1 (centres undefined),-10%,-4%
O=C(CSc1nnc2ccc(-c3ccccn3)nn12)N1CCCC1,-5%,-12%
CCc1nc2c(OCc3ccc(OC(F)F)cc3)cccn2c1N(C)C(=O)c1ccc(OC)cc1,-7%,4%
CCSC1(SCC)N=C(N)C2(C#N)C(c3ccc(F)cc3)C12C#N (centres undefined),-13%,-15%[1.46 µM]
CCC(=O)Nc1nc(-c2ccc3c(c2)OCCO3)cs1,-30%,-2%
CC(OC(=O)Cn1[nH]c(=O)c2ccccc2c1=O)C(=O)NC1(C#N)CCCCC1 (centres undefined),-13%,-12%
Cc1ccc(CNC(=O)Cn2ccn(-c3ccc(C)c(C)c3)c(=O)c2=O)cc1,-24%,-30%
O=C(N/N=C/c1ccc(O)cc1)c1cccc(C(F)(F)F)c1,-25%,-2%
Cc1ccc(-n2nc3c(c2NC(=O)c2ccc4c(c2)OCO4)CS(=O)(=O)C3)c(C)c1,-25%,-9%
CCOC(=O)C1(C)CCCN(C(=O)c2ccc(-c3ccccc3)cc2)C1 (centres undefined),-2%,-3%
CCN(CC)C(=O)CN(c1cccc(Br)c1)S(C)(=O)=O,-11%,i
O=C(CSCc1cnn(-c2ccccc2)c1-n1cccc1)NCc1ccccn1,-12%,-3%
CC(NC(=S)Nc1ccccc1OC(F)F)C(C)(C)C (centres undefined),-5%,-5%
Cc1ccccc1S(=O)(=O)N1[C@@H](c2ccc(Br)cc2)C(C(=O)O)=CC[C@H]1c1ccc(Cl)cc1,?,-3%
O=C(NCc1ccccn1)c1nc(-c2ccc(C(F)(F)F)cc2)no1,-9%,i
CCNC(=O)C/C(C)=N/NC(=O)C12CC3CC(CC(C3)C1)C2,-19%,-24%
Cc1nnc(NC(=O)c2ccc(S(=O)(=O)N3CCOCC3)cc2)s1,-6%,-20%

# One compound at a time (already shown). Screens in order: VACV Venus inh, VACV mCherry inh
# Profile of `CCNC(=O)C/C(C)=N/NC(=O)C12CC3CC(CC(C3)C1)C2` = -19%, -24%
# Profile of `COc1cccc(C(=O)NCc2nc(-c3cccc(NC(=O)c4ccoc4C)c3)oc2C)c1OC` = ?, ?

# Other records
Structure,VACV Venus inh,VACV mCherry inh
CCOC(=O)C(Cc1ccccc1)(NC(C)=O)C(=O)OCC,-5%,-12%
C/C(CCc1ccccc1)=N\NC(=O)CC(=O)NCCc1ccccc1,-16%,-2%
CCC1(c2ccccc2)C(=O)NC(=O)NC1=O,-15%,i
Cc1ccc2c(c1)N(CC(=O)NCC(C)c1ccccc1)C(=O)c1cccnc1O2 (centres undefined),0%,-6%
CCOc1ccc(N2CC(O)(c3ccc(F)cc3)[N+]3=C2CCCC3)cc1 (centres undefined),-13%,-6%
Cc1cccc2cc(C3CC(c4ccco4)=NN3S(=O)(=O)c3ccccc3)c(Cl)nc12 (centres undefined),-13%,-3%
CC(=O)OCC1CCCC2=C(C)C(=O)CCC21COC(C)=O (centres undefined),6%,i
COc1ccc(-c2noc(N3CCN(c4cccc(Cl)c4)CC3)n2)cc1OC,-15%,-24%
COC(=O)C[C@H]1c2cc(C(F)(F)F)ccc2S(=O)(=O)N1Cc1ccccc1,-3%&-9%,-5%&-19%
CCN1CCN(c2nc(SC)nc3sc4c(c23)CC(C)(C)OC4)CC1,-10%,-13%
Nc1ccc(C(=O)OCC(=O)N2c3ccccc3Sc3ccccc32)cc1[N+](=O)[O-],-20%,-9%
CCCCOc1ccc(Cl)cc1CSc1nnc(CC)n1N,-14%,-18%
COc1ccc(NC(=S)N2CCC(c3nc4ccc(Cl)cc4[nH]3)CC2)c(OC)c1,-16%,-14%
CC12CCC(c3nnc(SCc4ccc(Cl)cc4)nc31)C2(C)C (centres undefined),-17%,/
CNS(=O)(=O)c1ccc(CNC[C@H]2O[C@@H](n3ccc(N)nc3=O)[C@H](O)[C@@H]2O)cc1,-7%,-4%
CN(C)c1ccc(N2C(=O)CC(Sc3ccccc3C(=O)O)C2=O)cc1 (centres undefined),2%,-9%
CC1CN(c2nc(-c3ccccc3)nc3ccccc23)CC(C)O1 (centres undefined),1%,-6%
Cc1ccccc1CNC(=O)CC1C(=O)NCCN1CC1CCCCC1 (centres undefined),-11%,-10%
CCOC(=O)[C@]12CCCC=C1N(Cc1ccccc1)C(=O)[C@H](CC(=O)N1CCN(C(=O)c3ccco3)CC1)C2,-4%,-10%
CCCC(=O)Nc1ccc(C(=O)NNC(=O)c2cccc([N+](=O)[O-])c2)cc1,-17%,-4%
COc1ccc(S(=O)(=O)N2CCC(C)CC2)cc1Br,-12%,i
Cc1nc(S/C(=C/c2ccc(OCc3ccc(C(=O)O)cc3)cc2)C(=O)O)n[nH]1,-12%,4%
COc1c([N+](=O)[O-])c(=O)n(-c2ccccc2)c2ccccc12,0%,-8%
COc1ccc(-c2csc(NC(=O)c3nc(-c4ccccc4)oc3C)n2)cc1,-20%,/
CCCN1C2CCCC1CC(NC(=O)c1cccc([N+](=O)[O-])c1)C2 (centres undefined),-15%,-16%
CCCn1nc(C(=O)OCC(=O)NC(C)c2ccccc2)c2ccccc2c1=O (centres undefined),-6%,?
O=C(CC1C(=O)OCC2CCCCN21)Nc1ccccc1C(F)(F)F (centres undefined),-18%,i

# As a working copy, 7 of the compounds above:
Structure,VACV Venus inh,VACV mCherry inh
COc1ccc(S(=O)(=O)N2CCC(C)CC2)cc1Br,-12%,i
Cc1nc(S/C(=C/c2ccc(OCc3ccc(C(=O)O)cc3)cc2)C(=O)O)n[nH]1,-12%,4%
COc1c([N+](=O)[O-])c(=O)n(-c2ccccc2)c2ccccc12,0%,-8%
COc1ccc(-c2csc(NC(=O)c3nc(-c4ccccc4)oc3C)n2)cc1,-20%,/
CCCN1C2CCCC1CC(NC(=O)c1cccc([N+](=O)[O-])c1)C2 (centres undefined),-15%,-16%
CCCn1nc(C(=O)OCC(=O)NC(C)c2ccccc2)c2ccccc2c1=O (centres undefined),-6%,?
O=C(CC1C(=O)OCC2CCCCN21)Nc1ccccc1C(F)(F)F (centres undefined),-18%,i
